# TRPV1 potentiator = enhances activation of the human vanilloid receptor TRPV1 | Q8NER1 | TRPV1-expressing cells, Fluo-8 calcium influx, capsaicin EC20 potentiation; host cell line not named in the record; control for the full effect not named in the record | potentiation, % at 8.33 µM | 320,000 tested, 0.02% active | AID 540277; active means potentiation above 80%; inconclusive means 30% to 80%; inactive means below 30%; note: 0% is about no effect
# Target sequence (Q8NER1 whole entry, looked up): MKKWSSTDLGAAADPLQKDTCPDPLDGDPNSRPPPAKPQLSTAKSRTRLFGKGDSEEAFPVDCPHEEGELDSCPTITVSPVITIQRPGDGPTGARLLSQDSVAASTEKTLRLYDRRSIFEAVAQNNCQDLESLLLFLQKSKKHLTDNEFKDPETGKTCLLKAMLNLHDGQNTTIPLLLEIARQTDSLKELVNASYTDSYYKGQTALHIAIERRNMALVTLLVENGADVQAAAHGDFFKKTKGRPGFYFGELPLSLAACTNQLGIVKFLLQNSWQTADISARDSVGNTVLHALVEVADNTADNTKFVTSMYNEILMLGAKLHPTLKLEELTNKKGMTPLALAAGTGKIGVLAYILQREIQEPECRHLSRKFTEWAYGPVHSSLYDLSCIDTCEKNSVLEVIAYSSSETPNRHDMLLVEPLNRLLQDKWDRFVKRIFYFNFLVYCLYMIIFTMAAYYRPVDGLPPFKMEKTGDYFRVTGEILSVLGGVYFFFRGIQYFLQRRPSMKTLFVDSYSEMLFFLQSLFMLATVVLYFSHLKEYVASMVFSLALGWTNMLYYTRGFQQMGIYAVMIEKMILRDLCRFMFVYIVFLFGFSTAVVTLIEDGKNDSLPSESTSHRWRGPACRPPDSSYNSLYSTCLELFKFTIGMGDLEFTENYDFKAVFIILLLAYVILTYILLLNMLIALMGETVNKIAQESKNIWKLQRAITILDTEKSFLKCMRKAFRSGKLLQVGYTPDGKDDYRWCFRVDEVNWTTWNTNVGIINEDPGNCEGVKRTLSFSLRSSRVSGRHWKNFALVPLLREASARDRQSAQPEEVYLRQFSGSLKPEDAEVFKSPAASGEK
#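 Cells expressing TRPV1 were dye-loaded with Fluo-8 and read kinetically: 10 s baseline, 3 min after compound (agonist portion), then 2 min after EC20 capsaicin (allosteric enhancer portion). Calcium-bound dye fluorescence at 480/520 nm.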
# Menin-MLL FL inh = displaces fluorescein MLL peptide from human menin | FP activity change, % at 61.4 µM | AID 1766 | 290,000 tested, under 10 active | Fluorescence polarization, fluorescein-MLL peptide displacement from menin; inconclusive = falling polarisation curve, or a change in total fluorescence; inactive = total fluorescence flat and polarisation flat or rising; no compound was filed as active; the % refers to the polarisation; negative = inhibition;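 note: % of control where 0% means no effect; inhibitors lower the polarisation; unlabelled MLL peptide was the positive control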
# PINK1 modulator = changes PINK1 expression; 410,000 tested, 0.2% active; Potency, µM (series often up to 76.6 µM), inactives show at the highest dose activation (PINK1 increase), most hits filed as activators; PINK1 immunofluorescence, high-content cytometry, 24 h; active = well fitted activation curve with a large enough effect; inconclusive = small, poorly fitted or top-dose-only effect; inactive = flat fitted curve, though single readings scatter; cell line not stated here;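 note: potency is the fitted concentration of half-maximal effect; % of control where 0% means no effect; nearly all actives have a fitted effect of over 65% in size; a mitochondrial uncoupler was the plate control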
#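 A stable cell line was treated with compounds at 5 concentrations for 24 hours, with CCCP as control. PINK1 levels and mitochondrial localization were measured by immunofluorescence with mitochondrial, cell and nuclear markers after fixation, read by laser-scanning cytometry.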
# Sfp PPTase inh = blocks B. subtilis Sfp PPTase activity. Q9F4F7. AID 1490. 310,000 tested, 3.5% active. Biochemical Sfp PPTase activity, qHTS. Potency, µM, inactives show max response, negative = inhibition, usual class: inhibitors; active = well fitted inhibition curve with a large enough effect; inconclusive = small, poorly fitted or top-dose-only effect, or another doubt; inactive = no such curve, though single readings can be large or run the other way;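 note: the enzyme is Sfp with the accession as filed and its product quenches rhodamine fluorescence; potency is the fitted concentration of half-maximal effect; 0% = enzyme reaction without inhibitor and -100% = no enzyme wells; top concentration of the series not given in the record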
#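 Step 1, compound plus 15 nM Sfp-PPTase, 15 min, room temperature. Step 2, add rhodamine-CoA (5 uM) and BHQ-2-YbbR (12.5 uM). Step 3, read 525/598 nm fluorescence at 0 and 30 min.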
# TRPML1 agonist = activates the human TRPML1 channel; TRPML1-expressing cells, Ca2+ dye fluorescence, FDSS; host cell line not named in the record; reference of the full effect not given here; AID 624414; Q9GZU1; 410,000 tested, 0.12% active; activation, % (test concentration not listed); in the data active = activation above about 50%; inconclusive = about 30% to 50%; inactive = below about 30%; note: 0% is about no effect; the text of the record puts the active cut at 80%
#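 Agonist activity was taken from a 110 s kinetic Ca2+ dye read on the FDSS after pinning compounds onto TRPML1-DL cells. The cells were seeded at 1,500/well with Tet inducer, incubated about 16 h, then dye-loaded at room temperature.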
# ClpP mod = qHTS Assay for Activators of ClpP; ATP-dependent Clp protease proteolytic subunit (Bacillus subtilis (strain 168)), P80244; AID 651965, 2013; 340,000 tested, 1.9% active; purified B. subtilis ClpP, FRET peptide cleavage, 20 min; Potency, µM (top dose mostly 57.5 µM), inactives show top-dose activity change, negative = active; active = well fitted falling curve with a large enough effect; inconclusive = small, poorly fitted or top-dose-only effect; inactive = no such curve, though single readings can be large or run the other way; note: potency is the fitted concentration of half-maximal effect; the source files actives as falling curves though it sought activators and does not explain the sign; nearly all actives have a fitted effect of over 65% in size; many hits overshoot -100%
# Target sequence (P80244 whole entry, looked up): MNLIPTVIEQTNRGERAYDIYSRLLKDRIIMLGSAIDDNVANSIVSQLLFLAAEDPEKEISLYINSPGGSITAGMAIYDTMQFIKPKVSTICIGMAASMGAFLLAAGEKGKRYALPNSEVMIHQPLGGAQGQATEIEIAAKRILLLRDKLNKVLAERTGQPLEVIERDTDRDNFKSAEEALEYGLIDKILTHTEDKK
#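 ClpP 10 microg/mL final, pH 8 Tris/KCl buffer with BSA, glycerol, Tween-20; compound pinned in; FRET-FV substrate; RT 20 min; Ex320/Em430; ΔFRET vs ADEP 5.8 microM, DMSO, no enzyme.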
# TRPML1 blocker = blocks the human TRPML1 channel; TRPML1-inducible cells, Ca2+ dye fluorescence, FDSS; hits give low values; inhibition of EC80 agonist-evoked calcium signal; activity change, negative = inhibition, % (no concentration beside the values); 390,000 tested, 0.02% active; AID 624415; in the data active means activity change below about -50%; inconclusive means about -30% to -50%; inactive means above about -30%;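 note: stimulus is agonist 54-4 at its EC80 concentration; % is set by controls: 0 for no effect and ±100 for the full control effect; compound concentration not given in the record; the text of the record puts the active cut at -80%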
#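 Tet-induced TRPML1-DL cells loaded with Ca8 no-wash calcium dye were read kinetically on FDSS. Compound addition was followed by EC80 agonist 54-4 (4 uM final); inhibition was read over 110 s.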
# * hit, by the source's call; ? = inconclusive; . = not tested or not shown; & = joins results of further samples; [ ] = dose if it differs, or a comment. Compounds as they come. Share with any hit: about 4.4%.
SMILES,TRPV1 potentiator,Menin-MLL FL inh,PINK1 modulator,Sfp PPTase inh,TRPML1 agonist,ClpP mod,TRPML1 blocker
CSCCC(N=C(NS(=O)(=O)c1ccccc1)c1ccccc1)C(=O)O (configuration not stated),-0.1,1.6,1.6%,34.4%[activator],1.0,.,-2.0
COc1ccc(S(=O)(=O)N2CCC(C(=O)N[C@H](C(=O)NCc3ccccc3)C(C)C)CC2)cc1,.,.,11.2%,.,-1.0,-3.9%,-5.3
CCCNC(=O)c1cc(-c2ccc3c(c2)OCO3)on1,-8.1,-7.9,4.2%,1.8%,-0.6,.,-7.5
COc1nnc(-c2ccccc2)s1,-21.4,1.7,3.3%,-8.7%,0.9,-0.4%,10.2
Cc1cc(OCC(=O)O)c2cccc(C)c2n1,4.0,4.0,0.1%,7.3%,0.0,-20.1%,-4.2
Cc1ccc(C(c2nc3ccccc3[nH]2)n2c(-c3ccccc3)nc3ccccc32)cc1 (configuration not stated),.,.,3.5%,.,-0.3,5.4%,.
COc1ccc(CNC(=O)c2cc3cccc4c3n2CC(C)S4)cc1 (configuration not stated),.,.,1.5%,.,1.2,31.6µM*,31.4
Cc1[nH]nc2c1C(c1ccc(O)cc1)C1=C(CC(C)(C)CC1=O)N2 (configuration not stated),7.8,1.6,1.3%,14.8%,0.8,.,-3.3
O=C(O)c1ccc(NC(=O)c2cccc(C(=O)Nc3ccc(C(=O)O)cc3)c2)cc1,-3.7,-3.0,0.1%,8.7%,0.0,-4.9%,-15.1
CN1CCN(S(=O)(=O)c2cccc(C(=O)Nc3sc4c(c3-c3nc5ccccc5[nH]3)CCCC4)c2)CC1,?,3.8,?,-10.8%,0.9,-1.2%,-4.5
COc1cc(NC(=S)N2CCC(C(N)=O)CC2)c(OC)cc1Cl,9.4,-0.1,2.5%,?,1.1,0.8%,12.5
COCCn1c(=S)[nH]c2cc(C(=O)NC3CCCC(C)C3C)ccc2c1=O (configuration not stated),.,.,-0.4%,.,-0.6,-2.2%,-6.7
O=S1(=O)CCC(NC(=S)N2CCOCC2)C1 (configuration not stated),7.1,-2.8,-0.9%,?,0.2,1.5%,-1.0
Nc1nc(N2CCN(c3ccc(Cl)cc3)CC2)n[nH]1,8.9,-1.7,2.0%,1.1%,0.2,.,0.2
CCOC(=O)c1ccc(S(=O)(=O)NC2CC2)cc1,4.2,3.7,-0.5%,6.4%,-0.7,.,-15.2
CCOc1ccc(S(=O)(=O)n2nnc3ccccc32)cc1C,10.5,3.9,-3.0%,11.6%,-0.3,-4.1%,19.6
CCOc1ccc2[nH]c(=O)c(CN(C(=O)N3CCOCC3)C3CC3)cc2c1,1.6,0.5,.,12.4%,.,.,.
CN(C)S(=O)(=O)c1cccc(C(=O)NC2CCSc3ccccc32)c1 (configuration not stated),-5.4,.,-0.3%,-7.4%,0.6,1.2%,-5.0
C/C(=N\NC(=O)Cc1ccc(F)cc1)c1ccc(F)cc1,-3.4,4.2,16.5%,11.4%,2.1,0.8%,2.5
CCCCCCCN1C2=NCCN2c2ccccc21,.,0.5,0.4%,0.8%,.,1.6%,.
COc1ccc(-c2[nH]ncc2CN(C)CCCN2CCOCC2)cc1F,19.1,0.6,0.2%,-5.2%,-0.3,.,4.0
CCc1cc(Br)ccc1NC(=O)C1CCCO1 (configuration not stated),-0.8,2.1,12.2%[38.3 µM],5.0%,-0.5,0.1%,-6.8
Cc1ccc(NCCCCO)cc1C,-13.3,-6.2,0.9%,9.0%,-0.9,.,4.2
COc1ccc(C2CCCN2C(=S)Nc2c(C)cccc2C)cc1OC (configuration not stated),-0.1,-0.1,2.3%,11.0%,-0.7,.,2.5
O=C(Nc1ccc(Cl)c(Cl)c1)Nc1cc(S(=O)(=O)N2CCOCC2)ccc1N1CCCC1,16.5,2.9,19.6%,4.2%,0.9,?,8.1
Cc1ccc(C)c(C(C)NC(=O)C2CC=CCC2C(=O)O)c1 (configuration not stated),12.0,.,-0.1%,.,0.2,-0.5%,3.3
COc1cc(/C=C/C(=O)Oc2coc(CSc3ncccn3)cc2=O)cc(OC)c1OC,-5.1,-2.1,1.7%,19.2%,-0.1,3.5%,-5.5
CC1CCCCN1C(=O)CCS(=O)(=O)c1cccc2nonc12 (configuration not stated),4.0,3.4,0.0%,23.6%,0.1,-6.1%,11.3
Cc1ccc(NC(=O)C/C(N)=N/OC(=O)Nc2ccc(C)c(Cl)c2)cc1,-6.8,.,1.9%,.,0.6,.,5.0
COc1cccc(-n2cc(CNCc3c(C(=O)N(C)C)nc4ccc(Cl)cn34)cn2)c1,4.4,-0.9,1.6%,?,0.0,-14.9%,6.1
Nc1cc(N)[nH]c(=S)n1,.,.,2.2%,.,-0.3,0.4%,.
CCOc1ccc(NC(=S)NNc2ccnc3cc(Cl)ccc23)cc1,0.9,-0.1,?,20µM*,-0.6,.,12.8
C[C@@H]1C[C@@H]2OC(=O)[C@]3(C)[C@H]2[C@@H](OC3(C)O)[C@]2(C)C(=O)C=C[C@H]12 (some centres not stated),-33.1,-0.1,1.8%,4.6%,-0.9,?,27.5
COc1cc(C)c(CN2CCSCC2)cc1C,16.7,3.2,-0.5%,-8.8%,-0.6,1.7%,-4.4
O=C(Cn1cnc2c(cnn2-c2ccccc2)c1=O)Nc1cc(S(=O)(=O)N2CCOCC2)ccc1Cl,6.2,.,2.6%,11.4%,-0.1,-9.6%,-10.6
COc1cccc(CNC(=O)CCn2c(=O)c3cccn3c3cccnc32)c1,-12.2,7.4,-0.2%&-0.6%,4.0%,0.5&0.3,-19.8%,20.9&-9.3
CCCCCCCCCCn1ccc(=N)cc1,22.8,-0.2,?,-9.6%,0.6,-0.2%,17.6
CCOC(=O)c1ccc(CN2CCCC(C)(C(=O)NCCOC)C2)cc1 (configuration not stated),.,.,0.6%,.,-0.9,-0.1%,.
COc1ccccc1-c1nn(-c2ccccc2)cc1C(=O)N1CCN(C(=O)c2ccco2)CC1,-0.8,.,1.3%,.,0.9,-4.1%,-20.3
CN1CCN(c2nc3c(=O)[nH]c(N)nc3n2C2OC(CO)C(O)C2O)CC1 (configuration not stated),.,.,-0.7%,.,-0.7,1.2%,.
O=S1(=O)C2CC3C=CC2(CN1Cc1ccccc1)O3 (configuration not stated),.,0.4,.,2.6%,3.4,.,-0.9
Cc1ccc(C)c(N2CCN(C(=O)c3csc4ccccc34)CC2)c1,-10.6,5.3,22.2%,-26.4%,2.4,0.8%,17.5
Cc1ccc(S(=O)(=O)CCC(=O)Nc2cccc([N+](=O)[O-])c2)cc1,-4.6,2.1,0.0%,1.6%,0.5,2.6%,-14.7
Cc1ccc(NC2=NC(c3ccc(F)cc3)n3c(nc(C)cc3=O)N2)cc1 (configuration not stated),22.5,1.4,0.9%,10.8%,1.6,.,21.8
O=C(CSc1ncnc2c1cnn2-c1ccccc1)Nc1ccc2c(c1)OCO2,21.4,1.2,5.8%,2.5%,1.9,11.0%,-12.9
C/C(CC(=O)Nc1cccc2c1CCCC2)=N\NC(=O)c1cccc2ccccc12,0.5,-0.5,1.3%,-3.5%,1.4,0.7%,-2.9
O=C1c2ccccc2C(=O)N1Cc1cc(-c2ccccc2Cl)no1,-0.3,-3.1,5.6%[38.3 µM],-2.9%,-0.4,-4.0%,1.1
Cc1ccc(-c2onc(C)c2C)cc1S(=O)(=O)N1CCCCC1,.,.,3.2%,.,3.2,-2.3%,48.4
Cc1cc(Br)ccc1NC(=O)Cn1cnc2sc(C)c(S(=O)(=O)N3CCN(C)CC3)c2c1=O,.,.,-0.3%,.,0.1,-0.5%,58.7
COc1ccc(NC(=O)c2csc3c2CCCC3)cc1,-19.5,1.0,0.9%[38.3 µM],17.6%,0.9,1.7%,-0.6

# An excerpt from above in order of their number in Sfp PPTase inh, smallest number first:
SMILES	Menin-MLL FL inh	PINK1 modulator	Sfp PPTase inh	TRPML1 blocker
COc1nnc(-c2ccccc2)s1	1.7	3.3%	-8.7%	10.2
C/C(CC(=O)Nc1cccc2c1CCCC2)=N\NC(=O)c1cccc2ccccc12	-0.5	1.3%	-3.5%	-2.9
COc1ccc(C2CCCN2C(=S)Nc2c(C)cccc2C)cc1OC (configuration not stated)	-0.1	2.3%	11.0%	2.5

# Additional records follow:
SMILES,TRPV1 potentiator,Menin-MLL FL inh,PINK1 modulator,Sfp PPTase inh,TRPML1 agonist,ClpP mod,TRPML1 blocker
CCN(CC)S(=O)(=O)c1c(OC)cc(C)c(Cl)c1C,-8.2,-0.3,-2.5%,-8.4%,-0.3,-3.7%,26.0
O=C(N1CCCCC1)N1CCN(S(=O)(=O)c2ccc(Cl)cc2)CC1,-11.8,-4.5,-0.8%,-1.1%,-0.2,.,-4.4
CC1Cc2ccccc2N1C(=O)COC(=O)c1ccco1 (configuration not stated),.,.,1.4%,.,0.0,-1.1%,-14.8
NNC(=O)c1snnc1-c1ccccc1,-6.4,0.5,0.4%,-0.4%,1.3,.,24.8
CCn1c(CNC(=O)c2ccccc2F)nnc1SCC(=O)NC1CCCCC1,-6.1,-0.7,1.6%,11.5%,0.3,-0.1%,-0.4
CC(C)c1ccc(NC(=O)C[n+]2ccn(C3=C([O-])c4ccccc4C3=O)c2)cc1,2.6,4.2,3.1%,-0.5%,0.5,.,16.4
O=S(=O)(/C=C/c1ccccc1)NC1CCCCCC1,-8.2,-0.4,3.2%,8.4%,-0.2,.,3.1
COc1ccc(N2CC(O)=C(c3nc(-c4ccc(F)cc4)cs3)C2=N)cc1Cl,-0.2,11.2,19.1%,-23.5%,0.2,-0.1%,23.6
O=C1C(=O)N(CCCn2ccnc2)C(c2ccc(Br)cc2)/C1=C(\O)c1ccc2c(c1)OCCO2 (configuration not stated),-12.6,.,-0.3%,7.5%,1.7,-3.2%,30.3
Cc1ccc(S(=O)(=O)N2C[C@H]3N(C(=O)OC(C)C)N(C(=O)OC(C)C)C[C@H](OC(=O)NC4CC4)[C@@]3(O)C2)cc1,.,.,0.5%,.,-0.3,-1.5%,-2.5
CC(C)c1nc(SCC(=O)Nc2nccs2)c2ccccc2n1,-3.1,-2.9,1.5%,12.4%,0.8,.,7.3
COC(=O)c1sc(NC(=O)C2c3ccccc3Oc3ccccc32)c(C(=O)OC)c1C,4.0,5.0,1.0%,12.0%,-0.3,?,-1.5
Cc1[nH]c2ccccc2c1C(=O)C(=O)N1CC=C(c2ccccc2)CC1,8.0,?,-0.2%,11.5%,-0.1,-2.2%,28.0
